# Screening results deposited in PubChem BioAssay by several laboratories.
# PrP UTR inh: inhibition of PrP 5' UTR reporter expression. cell-based PrP 5' UTR mRNA reporter, plate reader. inhibition, % (test concentration not listed). actives 0.35% (n = 340,000). AID 488862, 2010;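 active means every replicate at 50% or more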;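 further: 0 = median of the neutral control wells; tested in H4 reporter cells; numbers are from one replicate; inactives centre near -14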
# Mtb hypoxia rep: PubChem AID 1159583; M. tuberculosis hypoxia-regulated fluorescent reporter, fluorescence; fluorescence inhibition, % (concentration not given with the values); actives 0.1% (n = 300,000);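 active means 35 to 45% if threefold the growth effect, above 45% if 1.5-fold the growth effect; inactive means the rest, general growth blockers included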;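 further: wells of about 50 µL received 100 nL stock; 0% = vehicle wells and 100% = reference inhibitor wells; whole bacteria with a GFP reporter of the hypoxia response; strong numbers were not always called active; many hits fall short of the cut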
# Sa ugtP lethal: growth inhibition of ugtP-null S. aureus, primary screen, RN4220 ugtP deletion, OD600; actives 0.54% (n = 330,000); AID 1259309, 2017; 16 h; some inactives read as strong as hits; growth inhibition, % (concentration not given with the values);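 active means z-score under -3 and OD600 up to 0.15 on both plates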;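 further: plate controls were untreated wells for no effect and antibiotic for full effect; wells of about 80 µL received 100 nL stock; the first replicate is given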
# Bead autofluor: counter-screen for toxin protease inhibitors: compound fluorescence; compound autofluorescence counterscreen, microsphere flow cytometry; stronger effect = higher value; fluorescence intensity (no concentration beside the values); actives 3.1% (n = 360,000); AID 624483;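 active means at least 3 SD above the mean of all compounds, about 16000 in these data; inconclusive means too few beads counted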;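 further: 100 nL of 1 mM stock went into each well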
# BJeLR viability: MLPCN primary cell-based screen for lethality selective to Ras in HRASV12 cells; BJeLR (HRASV12) viability, CellTiter-Glo ATP luminescence, 48 h; reference of the scale not given here; inhibition, % (test concentration not listed); actives 0.17% (n = 300,000); AID 1554, 2009;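 active means replicate mean above 50%; inconclusive means above 50% but judged a plate artefact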;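 further: 50 nL library stock added to about 25 µL; numbers are from one replicate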
# Sa RN4220 lethal: growth inhibition of S. aureus RN4220, primary screen, OD600 | 16 h | inhibition, % (concentration not given with the values) | actives 0.33% (n = 330,000);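 active means z-score of -3 or lower and OD600 up to 0.18 on both plates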;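 further: plate controls were untreated cells for no effect and reference antibiotic for full effect; stock transfer was 100 nL into about 80 µL; one replicate is shown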
# Mtb hypoxia rep growth: recorded beside Mtb hypoxia rep, whose call it bears; growth inhibition, %; measured here: M. tuberculosis growth (absorbance);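 0% = vehicle and 100% = reference antibiotic; read after six days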
# Numbers without * were called inactive; ? = inconclusive; . = not tested or not shown. Outcome played no part in choosing rows. Share with any hit: about 3.9%.
SMILES,PrP UTR inh,Mtb hypoxia rep,Mtb hypoxia rep growth,Sa ugtP lethal,Bead autofluor,BJeLR viability,Sa RN4220 lethal
COc1ccc(CNC(=O)Cn2nc(C(F)(F)F)c3c2CCC3)cc1,-33,13,5,-8,8974,-5,3.9
CN(C)CC(C)(C)CNS(=O)(=O)c1ccc(Cl)s1,-21,9,3,7,4605,1,4.5
COC(=O)c1[nH]c(C)c(C(O)=C2C(=O)C(=O)N(CCN(C)C)C2c2cc(OC)ccc2OC)c1C (stereo unspecified),.,5,12,-3,.,.,3.7
CCSc1ncnc2c(C#N)c3n(c12)CCCCC3,-7,.,.,3,2362,8,1.5
COc1ccccc1N1CCN(CC(O)COc2ccc3c(c2)CCC3)CC1 (stereo unspecified),-15,.,.,-4,4910,0,3.4
Cc1ccccc1-c1ccccc1CN1[C@@H](C(C)C)COCCS1(=O)=O,-7,6,9,-13,3753,.,10
CC(C)C(=O)NNc1ccccc1,-12,8,-2,8,2243,7,4.3
CC(=NNC(=S)NC(C)C)c1ccc(Cl)s1,.,6,15,14,.,.,2.6
COc1ccc(-n2nc(C(=O)NCC(=O)N3CCOCC3)c3ccccc3c2=O)cc1Cl,-13,2,4,2,4189,-4,3.2
COc1cc(NS(=O)(=O)c2ccc(NC(=O)COc3ccc(C)cc3)cc2)nc(OC)n1,-18,9,16,8,3597,2,0.9
COC(=O)C1=C(C)NC(=O)CC1c1cccc(OC)c1OC (stereo unspecified),-16,7,4,1,10332,5,1.9
CCOC(=O)C1=C(CS(=O)(=O)c2ccc(C)c(C)c2)NC(=O)NC1c1ccc(O)cc1 (stereo unspecified),-9,12,5,0,4585,-1,1.7
Cc1ccc(S(=O)(=O)NC(Cc2ccccc2)C(=O)NN)cc1 (stereo unspecified),0,4,4,6,3666,12,-1.5
COC(=O)Cn1cnc2c(oc3ccccc32)c1=O,-10,7,-6,1,5856,-10,1.3
O=C(Nc1nc(-c2ccc(F)c(F)c2)cs1)C1=COCCO1,-48,11,6,16,3601,.,15
CC1(C)Cc2c(sc3c2C2=NCCN2C=N3)CS1,-25,.,.,1,2590,5,0.3
Cc1cc(C=NNC(=O)c2cccc(N(C)C)c2)c(C)n1-c1cc(C(=O)O)cc(C(=O)O)c1,.,-3,8,1,.,.,3.3
O=C(NN=Cc1cn[nH]c1-c1ccc(Cl)cc1)c1ccc([N+](=O)[O-])cc1,.,-8,-17,2,.,.,-2.4
CCN(CC)c1ccc(NC(=O)CSc2nnc3nc(C)cc(C)n23)cc1,-5,.,.,-1,2488,-7,0.9
COc1cc(CCCN2CCNCC2CC2CCCCC2)cc(OC)c1OC (stereo unspecified),.,-1,7,-1,.,.,2.6
O=C(CN1CCN(S(=O)(=O)c2ccc(Cl)cc2)CC1)NCC1(N2CCOCC2)CCCCC1,-28,3,-8,4,4142,.,2.8
C=CCC(CC(=O)N(CCO)Cc1ccccc1)C(=O)NCCOC(=O)C(CC=C)Cc1ccc(F)cc1 (stereo unspecified),.,8,4,-17,.,.,3.0
CCCCc1nnc(NC(=O)C2CC(=O)N(c3ccc4c(c3)OCCO4)C2)s1 (stereo unspecified),-14,-5,-6,3,2383,10,1.4
N#CC1=C(SCC(=O)Nc2ccccc2)NC(=O)CC1c1ccc(O)cc1 (stereo unspecified),-25,4,-2,-10,4410,5,6.8

# Reprinted at random: two compounds from above.
SMILES,PrP UTR inh,Mtb hypoxia rep,Mtb hypoxia rep growth,Sa ugtP lethal,Bead autofluor,BJeLR viability,Sa RN4220 lethal
O=C(CN1CCN(S(=O)(=O)c2ccc(Cl)cc2)CC1)NCC1(N2CCOCC2)CCCCC1,-28,3,-8,4,4142,.,2.8
C=CCC(CC(=O)N(CCO)Cc1ccccc1)C(=O)NCCOC(=O)C(CC=C)Cc1ccc(F)cc1 (stereo unspecified),.,8,4,-17,.,.,3.0

# The list goes on.
SMILES,PrP UTR inh,Mtb hypoxia rep,Mtb hypoxia rep growth,Sa ugtP lethal,Bead autofluor,BJeLR viability,Sa RN4220 lethal
CC(=O)Nc1ccc(OCC(=O)NCCc2ccc(Cl)cc2)cc1,-19,6,10,0,2336,-6,2.5
Cc1nc(N2CCC(C)CC2)c2c(C)c(C(=O)Nc3ccc(C(F)(F)F)cc3)sc2n1,-5,-3,0,-35,2020,-1,4.3
Cc1ccc(-n2cccn2)c(CN2CCCC(C(=O)c3ccc4c(c3)OCO4)C2)c1 (stereo unspecified),-15,6,11,-8,4329,.,2.8
CCOC(=O)c1cc2c(=O)c3cc(C)ccc3oc2nc1C,-39,-2,-1,15,3810,-2,2.6
COc1ccc(C(=O)c2coc3ccc(O)c(CN4CCCC4)c23)cc1,-11,-8,-5,16,6112,17,27
Nc1nc(NCc2cccs2)nn1-c1ccccc1,-42,14,6,7,4175,1,6.4
CCOC(=O)c1c(C)[nH]c(C(=O)CSc2nc3ccccc3o2)c1C,-27,7,8,4,2946,-6,7.7
COc1ccc(NC(=O)CNC(=O)Cn2c(C)cc3ccccc3c2=O)c(OC)c1,-20,11,8,3,4536,2,-2.4
O=C(NCc1cccnc1)c1ccc(COc2ccc3c(c2)CCC3)o1,-35,-5,6,-7,11197,1,-1.3
CCCCCn1c(Sc2ccccc2)nc2c1c(=O)[nH]c(=O)n2C,5,1,8,2,5023,-1,0.3
Cc1ccc(-n2c(=S)[nH]c3c(oc4ccccc43)c2=O)cc1,-27,3,-4,29,2143,3,3.2
Cc1ccc(CNCC(O)(c2ccc(F)cc2)c2ccc(F)cc2)cc1,-4,-12,0,-10,22638*,3,0.1
C/C(=N\NC(=O)C(N)=O)c1ccc(Br)cc1,-31,.,.,.,2733,-8,.
Cc1ccc(NC(=O)C2CC(=O)Nc3ncnn32)c(C)c1 (stereo unspecified),-19,13,7,4,5659,9,3.3
COc1ccc(C(CC(=O)Nc2ccccc2OC)n2cccc2)cc1 (stereo unspecified),-6,.,.,.,1997,1,.
COc1ccc2c(Cl)c(C(=O)N/N=C/c3c(C)[nH]c4ccccc34)sc2c1,9,.,.,.,20361*,-13,.
O=C(NCCc1cccs1)c1ccc(CS(=O)Cc2ccc(Cl)cc2)o1 (stereo unspecified),-9,3,4,7,5181,5,3.3
CC1(C)C2CCC1(CS(=O)(=O)Nc1cccc(S(N)(=O)=O)c1)C(=O)C2 (stereo unspecified),.,5,0,8,3568,12,2.6
COc1ccc(-c2n[nH]c(=S)n2/N=C/C=C/c2ccccc2OC)cc1,-1,.,.,.,1879,4,.
O=C(CNC(=O)c1ccco1)N/N=C/c1ccc(O)cc1O,-14,.,.,.,5324,-12,.
CC1CCCN(CCOCCSc2ccccc2)C1 (stereo unspecified),-13,8,7,14,2268,-3,4.7
Cc1ccc(S(=O)(=O)Nc2cc(-c3ccccc3)nn2C)cc1Cl,-27,9,18,-6,6897,3,20
COc1ccc(-c2nc(CSCC(=O)NC3CCCc4ccccc43)c(C)o2)cc1 (stereo unspecified),-21,15,11,-12,3755,-5,3.5
Cc1ccc(C(=O)NCCN2C3=NC[C@H](C(C)C)N3C[C@H]2Cc2ccc(O)cc2)cc1Br,-10,.,.,.,2902,-7,.
NS(=O)(=O)c1ccc(N=NN2CCCCC2)cc1,-35,10,5,-3,4334,0,8.7
O=[N+]([O-])c1ccc(Cl)c(S(=O)(=O)Nc2cccc(-c3ccc(N4CCCC4)nn3)c2)c1,-37,9,3,-2,.,-1,1.6
CCN1CCN(S(=O)(=O)c2cc(OC)c(Cl)cc2OC)CC1,-10,3,6,-2,12159,3,2.6
CC/C(=C\C(=O)c1ccncc1)Nc1ccc(Br)cc1,-11,.,.,.,3405,-6,.
CN(C)c1ccc(C=NNC(=O)CCCO)cc1,.,7,-2,0,.,.,3.7
Cc1[nH]c2ccccc2c1SCCNC(=O)c1ccc(S(=O)(=O)N2CCCC2)cc1,-62,5,12,-6,5902,15,-4.5
CCCC(=O)Nc1ccc(C(=O)Nc2ccc([N+](=O)[O-])cc2OC)cc1,3,-11,1,2,3707,8,1.9
Cc1ccc(C)c(N2CCN(C(=O)Nc3ccc4c(c3)N(C)C(=O)CS4)CC2)c1,-22,4,4,0,2694,7,24
O=C1OC(c2ccccc2)=N/C1=C\C=C\c1ccccc1[N+](=O)[O-],-29,4,-2,2,1947,-8,1.9
Cc1ccc(C)c(N2CCN(C(=O)Cn3c(=O)[nH]c4ccsc4c3=O)CC2)c1,-25,5,4,4,6264,-1,0.4
N#C/C(=C\c1ccccc1)C(=O)OCC(=O)N1CCCC1,-17,12,-2,0,3940,7,6.2
COc1ccccc1CNC(=O)COC(=O)Cc1ccsc1,-4,15,5,3,2635,-5,2.7
N=c1n(CC(=O)c2ccc([N+](=O)[O-])cc2)c2ccccc2n1Cc1ccc(Cl)cc1,1,2,0,-11,2670,2,22
O=C(NC1CC1)C1=C[C@@H](c2coc3ccccc3c2=O)C[C@@H](OCCCCO)O1,-22,.,.,.,3849,1,.
O=C(O)Cc1sc(Nc2ccc(Cl)cc2)nc1-c1cccs1,88*,18,18,-12,.,3,-0.6
O=C(O)c1ccccc1C(=O)Nc1ccc(-n2nccc2C(F)(F)F)cc1,-6,8,0,-3,.,-1,5.3
Cc1cc(C2=NNC(=NC3CC3)SC2)c(C)n1-c1ccccc1,94*,8,17,2,2572,19,0.5
COc1ccc(/C=N/N2CCN(C)CC2)cc1O,-20,.,.,.,2380,-13,.
Nc1c2nc(-c3ccccc3Cl)[nH]c(=O)c2nc(=O)n1-c1ccccc1,-37,-4,-14,-2,5138,6,0.3
COc1ccc(C(=O)N/N=C/c2ccc(OC)c(CSc3ccccn3)c2)cc1,-21,.,.,.,2286,3,.
COc1ccc(NC(=O)N(C)C[C@H]2Oc3c(NS(=O)(=O)c4cn(C)cn4)cccc3C(=O)N([C@H](C)CO)C[C@@H]2C)cc1,-14,1,5,3,3448,.,2.3
O=C(Nc1cccc(F)c1)C1CC(=O)N(c2ccc(Cl)cc2)C1 (stereo unspecified),-28,6,3,-5,4351,-14,5.2
COc1ccc(C(=O)CSc2nnc(CNC(=O)c3ccc(OC)cc3)n2C)cc1,-28,7,10,7,11892,-9,2.5
COc1ccc(Nc2ncnc3sccc23)cc1OC,-16,-7,-13,1,3642,2,1.9

# Results in PrP UTR inh, Bead autofluor and Sa RN4220 lethal (two entries from above):
SMILES,PrP UTR inh,Bead autofluor,Sa RN4220 lethal
COc1ccc(-c2n[nH]c(=S)n2/N=C/C=C/c2ccccc2OC)cc1,-1,1879,.
COc1ccccc1CNC(=O)COC(=O)Cc1ccsc1,-4,2635,2.7

# (continued)
SMILES,PrP UTR inh,Mtb hypoxia rep,Mtb hypoxia rep growth,Sa ugtP lethal,Bead autofluor,BJeLR viability,Sa RN4220 lethal
COc1cc(/C=N/NC(=O)C(=O)Nc2ccccn2)ccc1O,-17,.,.,.,9369,-4,.
CCN(CC)CC(=O)Nn1c(C)nc2c(ncn2-c2ccccc2)c1=O,-13,-7,10,5,6047,4,2.8
COc1ccc(N2CC(C(=O)Nc3nnc(SCC(=O)NC4CCCC4)s3)CC2=O)cc1 (stereo unspecified),-6,12,-18,-14,?,2,-7.6
Cc1nc2c(cc1C#N)C(=O)c1ccccc1-2,-16,0,5,-1,2522,2,-0.9
COc1cc(-c2nnc3sc(-c4cccs4)nn23)cc(OC)c1OC,-12,22,11,-2,3162,-8,8.9
CN1CCN(c2nc3c(c(=O)n(C)c(=O)n3C)n2CCSc2nc3ccccc3s2)CC1,.,-3,19,-4,5436,.,20
CCC(=O)CC(c1ccccc1)c1c(O)c2ccccc2sc1=O (stereo unspecified),-7,5,7,1,2535,12,5.9
O=C(Nc1ccccc1F)c1coc(=O)c(Br)c1,-30,16,7,3,4747,6,3.0
O=C(NC(NC(=O)c1ccccc1)c1ccccc1)c1ccccc1,-6,9,7,17,5876,-6,6.3
CCn1c(Oc2ccc(F)cc2)nc2c1c(=O)n(C)c(=O)n2C,-22,.,.,.,4470,6,.
O=C(CN(Cc1cccs1)S(=O)(=O)c1ccc(S(=O)(=O)NC2CCCCC2)cc1)Nc1ccccc1,-13,7,2,-8,10376,7,2.0
C=CCSc1nnc(NC(=O)C23CC4CC(CC(NC(C)=O)(C4)C2)C3)s1,-32,11,1,1,5036,7,6.0
CCOc1cc(N2CCOCC2)c(OCC)cc1NC(=O)CSc1nnc(N)s1,-23,14,8,-3,4283,.,4.4
COc1ccc(C(=O)Nc2ccc(C)c(S(=O)(=O)N3CCOCC3)c2)cc1S(=O)(=O)N1CCCC1,-22,4,4,3,5623,.,3.7
CC(=O)NC1(NC(C)=O)CCN(C)C(c2ccccc2)C1C (stereo unspecified),12,.,.,-3,2596,0,-0.1
